Source: PubChem (National Center for Advancing Translational Sciences (NCATS))
D2 ag – human D2 receptor agonism in beta-arrestin assay; activation, % (no concentration beside the values); 0.084% of 360,000 active; P14416; DiscoveRx PathHunter D2 beta-arrestin, luminescence, 90 min; 100% = 57 uM dopamine signal; in the data active = activation above about 40%; inconclusive = about 15% to 40%; inactive = below about 15%; further: compound concentration not given in the record; the text of the record calls up to 30% inactive
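DiscoveRx PathHunter D2 beta-arrestin cells (2,100/well) attached overnight, then compound-stimulated 90 min at 37 C in HBSS/10 mM HEPES/0.1% Tween-20 buffer; beta-galactosidase complementation read by luminescence after 1 h at ambient temperature. Dopamine 57 uM final (EC100) as control.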
Six1-Eya2 blk – Six1/Eya2 interaction inhibition; Q15475+O00167; AlphaScreen GST-Six1/His-Eya2 binding, biochemical; hits give low values; control for the full effect not named in the record; activity change, % (test concentration not listed); 0.56% of 360,000 active; in the data active = activity change below about -65%; inconclusive = about -30% to -65%; inactive = above about -30%; further: on the % scale 0 is the no-effect control and ±100 the full control effect; compound concentration not given in the record
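GST-Six1 + His-Eya2 (5X stock: 250/500 nM); Tris pH 8.0, 300 mM NaCl, 0.05% BSA, 0.02% Tween 20; GSH donor/Ni acceptor beads; 1 h 37 °C dark; AlphaScreen readout.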
PINK1 expr mod – changes PINK1 expression; PINK1 immunofluorescence, high-content cytometry, 24 h; Potency, µM (titrated, usually from 76.6 µM), without a hit: top-dose activation (PINK1 increase), actives largely listed as activators; 0.2% of 410,000 active; active = well fitted activation curve with a large enough effect; inconclusive = small, poorly fitted or top-dose-only effect; inactive = flat fitted curve, though single readings scatter; cell line not stated here;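 further: potency means the concentration at half of the fitted maximal effect; % of control where 0% means no effect; nearly all actives have a fitted effect of over 65% in size; a mitochondrial uncoupler was the plate control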
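PINK1 protein, normally rapidly degraded, was detected by immunofluorescence after 24 hour compound treatment of a stable cell line. Titration data (5 concentrations) came from laser-scanning cytometry, with CCCP-treated wells as controls.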
D2 PAM – human D2 receptor positive allosteric modulation. P14416. DiscoveRx D2 beta-arrestin cells, luminescence, 90 min; 100% = 57 uM dopamine signal. potentiation, % (no concentration beside the values). 0.23% of 360,000 active; active = potentiation of 50% or more; inconclusive = 30% to 50%; inactive = 30% or less;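 further: compound concentration not given in the record; tested on top of an EC20 dose of dopamine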
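PathHunter D2 cells, attached overnight at 37 deg C, received compound in DMSO plus dopamine at EC20 (50 nM final) for 90 min at 37 deg C. Beta-arrestin recruitment was read as luminescence after 1 h with detection reagent at ambient temperature.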
TRPML1 inh – human mucolipin-1 channel inhibition | Q9GZU1 | TRPML1-inducible cells, Ca2+ dye fluorescence, FDSS; hits give low values; inhibition of EC80 agonist-evoked calcium signal | activity change, negative = inhibition, % (concentration not given with the values) | 0.02% of 390,000 active | AID 624415; in the data active means activity change below about -50%; inconclusive means about -30% to -50%; inactive means above about -30%;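 further: stimulus is agonist 54-4 at its EC80 concentration; on the % scale 0 is the no-effect control and ±100 the full control effect; compound concentration not given in the record; the text of the record puts the active cut at -80%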
Target sequence (Q9GZU1 whole entry, looked up): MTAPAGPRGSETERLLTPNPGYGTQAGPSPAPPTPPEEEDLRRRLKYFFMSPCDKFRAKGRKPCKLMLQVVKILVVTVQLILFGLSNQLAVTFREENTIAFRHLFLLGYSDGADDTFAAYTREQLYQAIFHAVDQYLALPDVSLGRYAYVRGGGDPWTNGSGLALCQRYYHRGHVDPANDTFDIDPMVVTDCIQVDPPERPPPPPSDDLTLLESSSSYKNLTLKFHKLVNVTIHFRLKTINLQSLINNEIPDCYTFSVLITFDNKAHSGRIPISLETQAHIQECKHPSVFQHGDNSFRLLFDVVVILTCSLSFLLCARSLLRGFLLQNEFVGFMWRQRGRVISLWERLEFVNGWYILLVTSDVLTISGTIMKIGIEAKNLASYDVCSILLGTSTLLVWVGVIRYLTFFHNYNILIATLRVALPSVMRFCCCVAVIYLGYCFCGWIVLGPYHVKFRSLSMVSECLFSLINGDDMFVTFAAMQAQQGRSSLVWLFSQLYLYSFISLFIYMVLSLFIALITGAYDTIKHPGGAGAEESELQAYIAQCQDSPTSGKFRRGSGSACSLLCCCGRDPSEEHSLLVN
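TRPML1-DL cells, Tet-induced overnight (~16 h, 37 °C) at 1,500 cells/well, were loaded with Ca8 no-wash dye plus quencher for 45-90 min at room temperature. Compounds were pinned during FDSS kinetic reading; agonist 54-4 at EC80 (4 uM final) then added.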
TRPML1 ag – agonists of human TRPML1 channel | 0.12% of 410,000 active | TRPML1-expressing cells, Ca2+ dye fluorescence, FDSS; host cell line not named in the record; reference of the full effect not given here | AID 624414 | activation, % (no concentration beside the values) | Q9GZU1; in the data active = activation above about 50%; inconclusive = about 30% to 50%; inactive = below about 30%; further: 0% is about no effect; the text of the record puts the active cut at 80%
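In this qHTS format, compounds were pin-transferred onto Ca8-dye-loaded TRPML1-DL cells induced with Tet overnight, and intracellular Ca2+ fluorescence was recorded kinetically for 110 s after a 10 s baseline. A subsequent 4uM final 54-4 (EC80) addition followed by a second 110 s read served as the antagonist phase.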
An asterisk follows results filed as active; ? = inconclusive; . = no result given; & = joins results of further samples; [ ] = remark or other dose.

entry	canonical_smiles	TRPML1 inh	TRPML1 ag	PINK1 expr mod
1	C=CCn1c(=O)c2ccccc2n2c(SCC(=O)NCc3cccs3)nnc12	-7	1.1	1.6%
2	O=C(Nc1ccccc1F)c1ccc2sc([C@@H]3O[C@H](CO)[C@H](O)[C@H](O)[C@H]3O)nc2c1	15	0.0	-0.2%
3	COc1ccc(CCNC(=O)C2CC3Cn4c(nc5cc(Cl)c(Cl)cc54)C3N2C)cc1 (stereo not given)	-13	-1.1	-0.8%
4	NC(Cc1ccc(C(F)(F)F)cc1)c1csc(Nc2cc(NCc3ccco3)ncn2)n1 (stereo not given)	.	2.2	-0.9%
5	CCOC(=O)c1ccc(NC(=S)NC(=O)COc2ccccc2)cc1	4	1.5	0.4%
6	CCCCCCCCCCCCCCCC[N+](C)(C)CCN(Cc1ccc(OC)cc1)c1ncccn1	-14	0.1	0.0%
7	CCOc1ccc(N(C)S(=O)(=O)c2ccc(-c3ccc(=O)[nH]n3)s2)cc1	1	0.4	0.6%
8	Cc1ccc([N+](=O)[O-])cc1N/C=C1\CCCCC1=O	3	-0.6	6.8%

entry	D2 ag	D2 PAM	Six1-Eya2 blk
1	-2.1	-2	-4
2	-7.0	-15	6
3	-0.4	-12	6
4	4.5	-8	-23
5	-0.3	-8	2
6	-12	-35	-20
7	2.1	-3	-1
8	-2.2	-6	-4

More compounds:
entry	canonical_smiles	TRPML1 inh	TRPML1 ag	PINK1 expr mod
9	CC(=O)Nc1ccc(NC(=O)c2cc(=O)c3cc(C)cc(C)c3o2)cc1	.	.	5.1%
10	COc1ccccc1Nc1nc(N)nc(CN2CCc3ccccc3C2)n1	-1	-1.0	-0.8%
11	COc1cc(OC)cc(C(=O)NCCC(c2ccccc2)c2ccccc2)c1	9	7.8	1.5%
12	C=CCn1c(SCC(=O)NC(=O)NC2CCCC2)nnc1C1CCCCC1	7	-0.8	-0.4%
13	Cc1ccc(C)c(C(=O)N2CCN(c3ncccn3)CC2)c1	-10	1.9	-1.0%
14	CCOCCN1CCN(c2c(C)c(C)nc3cc(-c4cc(OC)cc(OC)c4)nn23)CC1	4	0.5	-4.0%[38.3 µM]
15	O=C(CN1CCN(c2ccccc2F)CC1)NC(=O)NCc1ccccc1	5	0.1	-0.1%
16	Cc1[nH]nc2c1C1(C(=O)Nc3ccc([N+](=O)[O-])cc31)C(C#N)=C(N)O2 (stereo not given)	43	-0.3	2.1%

entry	D2 ag	D2 PAM	Six1-Eya2 blk
9	-7.8	-4	3
10	-2.9	-30	-10
11	-4.7	-9	10
12	-2.7	-11	3
13	-4.0	-6	-14
14	1.3	-15	-7
15	-4.8	-27	-3
16	-2.0	4	-18

(next part)
entry	canonical_smiles	TRPML1 inh	TRPML1 ag	PINK1 expr mod
17	CCNC(=O)C1(C)CCN(C(=O)c2ccccc2OC)C1 (stereo not given)	13	-0.1	-0.6%
18	COc1ccc(NC(=O)CSc2nc3nc(C)c(Cc4ccccc4Cl)c(C)n3n2)cc1OC	2	0.6	-1.1%
19	Cc1ccc(C)c(NC(=S)NNC(=O)c2csc3c2CCC(C)C3)c1 (stereo not given)	-6	1.1	2.8%[38.3 µM]
20	COc1cc(C2C3=C(COC3=O)Oc3cc4c(cc32)OCO4)cc(OC)c1O (stereo not given)	25	0.0	-1.0%
21	CCCCNC(=O)c1nc(C2CCN(S(=O)(=O)c3cccc(C(F)(F)F)c3)CC2)oc1-c1cccc(C(F)(F)F)c1	.	-0.6	-1.2%
22	COc1cc(C=O)ccc1OCc1ccncc1	.	.	0.4%
23	O=C(c1ccc2c(c1)N(Cc1ccccc1)C(=O)c1ccccc1S2(=O)=O)N1CCN(Cc2ccccc2)CC1	-2	-0.1	2.5%
24	Cc1ccc(NC(=O)C(CC(C)C)NC(N)=O)cc1Cl (stereo not given)	4	0.2	0.2%

entry	D2 ag	D2 PAM	Six1-Eya2 blk
17	-3.4	-15	1
18	.	.	.
19	-3.0	-28	-24
20	2.1	6	0
21	-3.0	-2	12
22	2.8	-6	2
23	.	.	.
24	-1.6	-5	11

The results go on:
entry	canonical_smiles	TRPML1 inh	TRPML1 ag	PINK1 expr mod
25	COc1ccc(NC(=O)C2CCC(C(C)(C)C)CC2)cc1S(=O)(=O)N1CCOCC1 (stereo not given)	-10	7.6	2.8%
26	C=CCc1c(N(CC)CC)nc(C)[nH]c1=O	10	0.9	1.0%
27	CCCCCCOC1(c2ccccc2)OC(=O)c2ccccc21 (stereo not given)	6	1.6	26%
28	Cc1ccc(NC(=O)CN2C(=O)c3ccccc3C2=O)cc1	-17	-1.1	1.6%
29	CCN(c1ccccc1)S(=O)(=O)c1ccc(F)c(C(=O)O)c1	-2	-0.2	4.0%[38.3 µM]
30	CC1Cc2ccccc2N1C(=O)C1CCCN(S(=O)(=O)c2cccc3cccnc23)C1 (stereo not given)	-2	1.5	3.7%
31	CCn1c(=O)c2sccc2n(CC(=O)NC2CCCC2)c1=O	-4	0.5	-0.7%
32	CCCCCCSc1cc(-c2nc3cc(C)ccn3c2NCCCC)ccc1OC	14	-0.6&0.3	?

entry	D2 ag	D2 PAM	Six1-Eya2 blk
25	2.1	-3	-2
26	-2.0	3	-6
27	-4.3	-12	44
28	-1.0	-13	5
29	-2.8	-20	3
30	-0.8	-4	-13
31	0.1	-10	7
32	-3.5	-31	-16&-1

(further entries)
entry	canonical_smiles	TRPML1 inh	TRPML1 ag	PINK1 expr mod
33	CSCC[C@H](NC(=O)N1CCn2c1nc1ccccc12)C(=O)NCC1CCCO1 (stereo not given in full)	-6	-0.7	2.5%
34	O=C(C=CC(=O)Nc1ccc(F)cc1F)Nc1ccc(F)cc1F	.	-0.9	3.8%
35	O=[N+]([O-])c1cccc(-c2cnc3ccccc3n2)c1	-12	1.0	-0.9%
36	COc1cccc(NC(=O)NNC(=O)C(C)Oc2ccc3ccccc3c2)c1 (stereo not given)	-18	-0.2	2.9%
37	CC1(C)CC(=O)C2=C(C1)OC(N)=C(C#N)C2c1ccoc1 (stereo not given)	6	-0.7	1.2%
38	Cc1ccc(-n2ncc3c(NNC(=O)Cc4ccccc4)ncnc32)cc1	-10	0.5	11%
39	COc1ccc(Nc2nnc(SC(C(=O)Nc3ccc(OC)c(Cl)c3)c3ccccc3)s2)cc1 (stereo not given)	-16	1.0	0.5%
40	O=S1(=O)N=C(N2CCN(Cc3ccccc3)CC2)c2ccccc21	-2	-0.3	-2.3%

entry	D2 ag	D2 PAM	Six1-Eya2 blk
33	-3.6	-13	0
34	-3.9	1	0
35	-6.0	-2	-3
36	3.1	0	2
37	-3.7	-7	-6
38	-5.1	-3	4
39	-0.7	-19	?
40	-1.2	-17	3

The list goes on.
entry	canonical_smiles	TRPML1 inh	TRPML1 ag	PINK1 expr mod
41	CCOc1ccc(CCNC(=O)CS(=O)Cc2nc(-c3ccc(OC)c(OC)c3)oc2C)cc1OCC (stereo not given)	3	-0.8	1.5%
42	C=CCNC(=O)COC(=O)c1ccc(Sc2nncn2C)c([N+](=O)[O-])c1	-2	0.3	-0.6%
43	Cc1[nH]nc2c1C(c1ccoc1)C(C#N)=C(N)O2 (stereo not given)	-8	1.2	0.9%
44	COc1cc(CN2C[C@@H](CO)O[C@@H](n3cnc4c(NCc5ccc(F)cc5)ncnc43)C2)cc(OC)c1OC	-10	0.1	1.0%
45	CN(C#N)c1nccc(-c2cccs2)n1	-8	0.4	-0.6%
46	O=C(O)c1ccn2c(C(=O)c3ccccc3)c(-c3ccccc3)cc2c1	6	0.9	-0.5%
47	COC(=O)/C(C#N)=C(/Nc1ccc(F)c(Cl)c1)C(F)(F)F	-2	-0.2	1.2%
48	CCOc1ccc(CN(C)C(=O)CNC(=O)C2CCCCC2)cc1	-3	0.0	0.2%

entry	D2 ag	D2 PAM	Six1-Eya2 blk
41	-4.1	-3	-1
42	1.1	16	10
43	-3.9	5	-15
44	-4.6	-9	-10
45	2.4	-4	0
46	-4.5	-6	-2
47	0.3	-11	0
48	-4.1	2	10

(continued)
entry	canonical_smiles	TRPML1 inh	TRPML1 ag	PINK1 expr mod
49	O=C(CSc1nc(-c2ccncc2)nn1CC(=O)N1CCCCC1)NC1CCCC1	-26	0.4	4.9%[38.3 µM]
50	O=C1CN(C(=O)COC(=O)c2ccccc2NCc2ccco2)c2ccccc2N1	32	0.3	0.5%
51	COc1ccc(OCC(=O)N2c3ccc(C)cc3C3CN(C)CCC32)cc1 (stereo not given)	1	2.1	-0.5%
52	CC1CN(C(=O)CSc2nc(N)c(NC(=O)c3ccc(C(F)(F)F)cc3)c(=O)[nH]2)CC(C)O1 (stereo not given)	2	-0.1	0.4%
53	COc1ccc(-c2n[nH]c(=S)n2Cc2ccccc2)cc1OC	-7	0.1	0.4%
54	Cc1scc(C(=O)NNC(=S)NC(C)c2ccccc2)c1C (stereo not given)	28	1.9	2.6%
55	CC(NC(=O)C(=O)NCCN1CCN(C(=O)c2ccc([N+](=O)[O-])cc2)CC1)c1ccccc1 (stereo not given)	-1	-0.5	-1.9%
56	COc1ccc(C(=O)NCCN2CCOCC2)c(OC)c1	4	-0.8	0.5%

entry	D2 ag	D2 PAM	Six1-Eya2 blk
49	1.4	-5	-2
50	-3.0	-2	-1
51	0.1	-18	-6
52	-2.2	-9	3
53	5.4	-17	-8
54	-9.6	-38	0
55	2.4	-7	11
56	-0.9	-7	0
